Source: PubChem BioAssay
E coli growth: E. coli growth inhibition, primary screen, OD600 | Escherichia coli growth, 23 h; hits give low values | OD600 absorbance (no concentration beside the values) | hit rate 0.21% among 330,000 | AID 1053175, 2014;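 active = OD600 absorbance below the run mean of sample wells minus 3.6 SD, in any replicate, cut at about 0.56 in these data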;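 also: stock transfer was 300 nL into about 60 µL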
HNF4A DNA FP: change in binding of human HNF4A to DNA, primary screen, biochemical, fluorescence polarization, FITC-DNA | Hepatocyte nuclear factor 4-alpha (Homo sapiens), P41235 | 1 h | activity change, % at 10 µM | hit rate 0.3% among 360,000; in the data active = activity change above about 30%, passing the limit was not always enough;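 also: controls were the assay level and a saturating level of protein; the project sought stronger binding though the title names inhibitors; some compounds called inactive have numbers as strong as hits; positive values seem to mean higher polarization but the record does not say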
Target sequence (P41235 whole entry, looked up): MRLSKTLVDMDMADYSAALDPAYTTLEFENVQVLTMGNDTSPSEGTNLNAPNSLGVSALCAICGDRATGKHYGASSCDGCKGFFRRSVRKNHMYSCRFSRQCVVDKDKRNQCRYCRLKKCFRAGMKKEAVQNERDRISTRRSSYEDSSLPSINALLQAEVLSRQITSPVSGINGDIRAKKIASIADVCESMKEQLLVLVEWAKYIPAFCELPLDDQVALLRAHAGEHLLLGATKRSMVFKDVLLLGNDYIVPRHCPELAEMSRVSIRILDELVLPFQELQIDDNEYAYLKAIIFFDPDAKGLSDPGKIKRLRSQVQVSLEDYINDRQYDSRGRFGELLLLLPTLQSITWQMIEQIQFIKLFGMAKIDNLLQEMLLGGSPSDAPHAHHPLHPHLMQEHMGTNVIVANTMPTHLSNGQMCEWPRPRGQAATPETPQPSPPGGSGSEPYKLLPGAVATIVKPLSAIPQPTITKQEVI
Vif TR-FRET: inhibitors of Vif binding to APOBEC3G peptide, primary screen, biochemical, TR-FRET, GST-Vif 1-94, biotin-A3G peptide, dose response retest (AID 1117319); Virion infectivity factor (Human immunodeficiency virus type 1 group M subtype B (isolate …; TR-FRET GST-Vif / biotin-A3G peptide binding; higher % means a stronger effect; test concentration not given here; strong numbers were not always called active; inhibition, %, or IC50 in µM where a hit was titrated; hit rate 0.57% among 260,000;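 active = above the screen mean plus three standard deviations and confirmed in dose response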;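 also: Vif residues 1-94 fused to GST binding biotinylated APOBEC3G peptide 110-148; 0% = full assay without inhibitor and 100% = GST in place of GST-Vif; retest series ran down from 100 µM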
AF4-AF9 inh: inhibitors of AF4 peptide binding to AF9, primary screen, biochemical, AlphaScreen, biotin-AF4 peptide, FLAG-AF9, single point. Protein AF-9 (Homo sapiens), P42568. inhibition, % at 10 µM. hit rate 0.47% among 350,000. AID 651704, 2012;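 active = every replicate reaching a set inhibition limit, whatever the replicate mean, cut at about 25% in these data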;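 also: 0% = plate neutral control median and 100% = total signal loss; the record names both 10 and 1 µM as test concentration; the first replicate is given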
ALR inh: inhibitors of human ALR sulfhydryl oxidase, primary screen, biochemical, H2O2 detection, HRP-luminol luminescence, single point; purified ALR, DTT oxidation; hit rate 3.8% among 290,000; inhibition, % (test concentration not listed); FAD-linked sulfhydryl oxidase ALR (Homo sapiens), P55789;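 active = mean and each replicate at 75% or more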;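 also: stock transfer was 7.5 nL into about 7.5 µL; 0% = neutral wells and 100% = wells with inactivated enzyme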
Target sequence (P55789 whole entry, looked up): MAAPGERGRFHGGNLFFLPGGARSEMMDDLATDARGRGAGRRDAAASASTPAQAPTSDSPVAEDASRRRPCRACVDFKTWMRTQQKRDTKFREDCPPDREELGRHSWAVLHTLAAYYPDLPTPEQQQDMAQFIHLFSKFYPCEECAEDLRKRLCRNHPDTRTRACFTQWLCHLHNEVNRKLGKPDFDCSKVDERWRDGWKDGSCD
rRNA inh HTS: reduced GFP signal of wild-type E. coli, primary screen, bacterial rRNA inhibitor project, GFP/RFP fluorescence, OD600, single point. E. coli WT GFP vs humanized-ribosome RFP mutants, 24 h; hits give low values; DMSO median 0, no signal -100. GFP signal change (wild-type ribosome), % (concentration not given with the values). hit rate 1.6% among 350,000. AID 720706, 2013;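 active = significant combined selectivity score with lowered wild-type GFP, culture density cut under 30%, mutant RFP and density less affected; inactive = any of these conditions unmet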; also: one replicate is shown; some compounds called inactive have numbers as strong as hits
FGF22 binding: binders of human FGF22 protein, primary screen, FGF22 synaptogenesis inhibitor project, biophysical, thermal shift, single point | recombinant FGF22 thermal shift, SYPRO orange fluorescence; percent of sucrose octasulfate shift, DMSO zero | hit rate 1.5% among 340,000 | calls only at 9.99 µM;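 active = melting point raised past a set limit in the mean and every replicate; three in four hits are not shown here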
Target sequence (Q9HCT0 whole entry, looked up): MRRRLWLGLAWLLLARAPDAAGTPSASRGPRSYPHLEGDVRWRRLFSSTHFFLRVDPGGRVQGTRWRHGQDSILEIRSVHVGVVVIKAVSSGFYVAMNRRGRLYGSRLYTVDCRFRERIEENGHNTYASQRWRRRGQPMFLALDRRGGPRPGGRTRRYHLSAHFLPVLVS
rRNA inh HTS OD600: further read-out of rRNA inh HTS, marked with its call; OD600 change, %; measured here: OD600 growth;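 optical density of the mix in the first replicate; 0 = DMSO median and -100 = no signal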
rRNA inh HTS RFP: recorded beside rRNA inh HTS, whose call it bears; RFP signal change, %; measured here: RFP humanized mutant strains;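 first replicate; 0 = DMSO median and -100 = no signal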
* hit, by the source's call; i = inactive; . = not tested or not shown. Not all compounds are listed; rates above refer to the full screens.

SMILES,E coli growth,HNF4A DNA FP,Vif TR-FRET,AF4-AF9 inh,ALR inh,rRNA inh HTS,rRNA inh HTS OD600,rRNA inh HTS RFP,FGF22 binding
C[C@@H]1CN([C@H](C)CO)C(=O)c2cccc(NS(C)(=O)=O)c2O[C@@H]1CN(C)S(=O)(=O)c1ccc(Cl)cc1,.,.,.,-2.4,.,-12,-9,-3.7,i
Cc1cc(OCC(=O)Nc2ccccn2)c2c(C)c(C)c(=O)oc2c1,0.71,2.3,.,-1.9,41,10,14,0.0,i
Cc1cc(C)n2nc(SCC(=O)NC(=O)c3ccc(OC(F)F)cc3)nc2n1,0.68,-2.0,.,2.4,-7,4,19,5.8,i
CCCC#Cc1ccc2c(c1)O[C@H](CN(C)Cc1cccnc1)[C@H](C)CN([C@@H](C)CO)S2(=O)=O,.,.,.,5.3,.,-22,-39,18,i
COc1ccc(Cc2nc3ccc(C(=O)N(C)C(C)c4ccon4)cc3o2)cc1 (centres undefined),0.74,-0.3,.,1.4,0,-2,-1,1.0,i
COc1cccc(C(=O)NCCS(=O)(=O)N(C)C2CCCCC2)c1,.,-2.5,.,-1.8,-9,8,1,-0.7,.
Cc1cc(O)c2c(c1)C(O)(C1OC(CO)C(O)C(O)C1O)c1cccc(O)c1C2=O (centres undefined),0.69,-1.3,18%,.,-12,.,.,.,.
N#CC1=C(N)N(c2ncn[nH]2)C2=C(C(=O)CCC2)C1c1ccc(F)cc1 (centres undefined),0.67,2.2,.,-11,1,-4,6,-7.0,i
Cc1cc(N2CCN(C(=O)c3ccco3)CC2)n2nc(-c3cccc(F)c3)cc2n1,0.7,4.5,-13%,.,-6,.,.,.,.
Cc1cc(NC(=O)CCC(=O)N(Cc2cccs2)C(C(=O)NC2CCCC2)c2ccccc2)no1 (centres undefined),0.73,-1.7,.,.,-27,.,.,.,.
O=C(c1ccccc1)N1CCN(C(=O)c2cc3ccccc3oc2=O)CC1,0.7,-1.0,.,4.2,.,2,6,-2.0,i
O=C(COC(=O)c1cc(=O)[nH]c2ccccc12)NCc1ccccc1Cl,0.69,-3.5,.,-0.7,-13,13,17,0.6,i
CCCCSc1nc(N)c(C#N)c(-c2cccs2)c1C#N,0.68,-1.8,-3%,5.2,1,-31*,10*,1.8*,i
O=C1NC(=O)C(CCc2ccccc2)(c2ccccc2)N1 (centres undefined),0.69,2.3,0%,-2.6,.,-19,-14,-3.0,i
C[C@@H]1CCCCO[C@@H](CN(C)S(=O)(=O)c2ccc(Cl)cc2)[C@@H](C)CN([C@@H](C)CO)C(=O)c2cc(NC(=O)Cc3ccccc3)ccc2O1,.,.,.,2.5,.,3,4,-2.7,i
C[C@@H]1CN([C@@H](C)CO)C(=O)c2cc(NC(=O)Cc3ccccc3)ccc2O[C@@H](C)CCCCO[C@@H]1CN(C)S(=O)(=O)c1ccccc1,.,.,.,1.5,.,-2,8,-1.1,i
CCOC(=O)[C@@H]1[C@H]2COc3ccccc3[C@@H]2N2C(=O)N(c3ccccc3)C(=O)[C@]12C,.,-0.6,.,-2.7,8,-6,-11,4.8,i
Cc1ccc(C(=O)CSc2nnc(-c3ccco3)n2CC2CCCO2)cc1 (centres undefined),0.67,7.1,9%,.,57,.,.,.,.
COc1ccc(NC(=O)C2(C)CCN2CCOc2ccc(C)cc2)cc1OC (centres undefined),.,3.3,.,-8.5,.,.,.,.,i
C[C@H]1CN([C@@H](C)CO)C(=O)c2cccc(NC(=O)c3ccc(-c4nccs4)cc3)c2O[C@H]1CN(C)C(=O)Nc1ccc2c(c1)OCO2,.,.,.,-1.2,.,0,-6,1.0,i
CCOC(=O)c1cccnc1NC(=O)c1ccncc1,0.68,0.7,.,-1.5,-13,-1,5,-3.0,i
COc1ccccc1NS(=O)(=O)c1cc(N/C(=N/S(=O)(=O)c2ccccc2)c2ccc(F)cc2)ccc1Cl,.,-4.5,-5%,-7.5,.,-10,-14,0.4,i
COc1ccc(N(CC(=O)NCc2ccc(F)cc2)C(=O)Cn2nnc(-c3ccc(C)o3)n2)cc1OC,0.73,1.7,.,-4.2,4,6,12,-2.6,i
COc1ccccc1NC(=O)c1ccc2c(c1)N(CC(=O)NC(C)(C)C)C(=O)C(C)(C)O2,0.7,-0.1,0%,0.7,-1,2,-2,-0.7,i
Cc1ccc(C)c(OCCn2cc(/C=C(\C#N)C(=O)NCc3cccs3)c3ccccc32)c1,0.79,0.1,-5%,.,-6,.,.,.,.
COc1ccc(C(C)(O)c2nc(-c3ccc(S(C)(=O)=O)cc3)cs2)cc1 (centres undefined),.,-5.3,.,-1.5,.,1,-6,1.5,i
CCCCN1CCNC1=S,0.68,1.7,-9%,-4.2,-4,1,10,0.0,i
CN(CC1CCCO1)S(=O)(=O)c1ccc(C(=O)Nc2ccc([N+](=O)[O-])cc2)cc1 (centres undefined),0.68,1.1,-2%,-0.8,-20,9,9,-3.3,i
COc1cc2oc3ccccc3c2cc1N(CC(=O)N1CCCCC1)S(=O)(=O)c1ccc(C)cc1,0.83,3.0,0%,.,-4,.,.,.,.
Cc1ccc2cccc(S(=O)(=O)Nc3c(C)n(C)n(-c4ccccc4)c3=O)c2n1,0.74,0.8,1%,.,-3,.,.,.,.
CC(=NC1CCN(Cc2ccccc2)CC1)c1c(O)[nH]c(=O)[nH]c1=O,0.74,1.7,4%,.,-6,.,.,.,.
CCO[C@@H]1OC(C(=O)NCc2nc3ccccc3[nH]2)=C[C@H](c2csc3ccccc23)[C@H]1CCCO,.,1.5,-7%,2.2,1,-18,-33,27,i
COc1ccc2oc(C(=O)OCc3c(C)noc3C)c(C)c2c1,0.69,0.3,-12%,-0.5,-15,17,-1,0.7,i
Cc1ccc(C)c(S(=O)(=O)Nc2cc3c4c(c2)CCN4C(=O)CC3)c1,0.66,3.0,5%,-1.1,3,-2,5,-0.6,i
CC(CN1CC(=O)NC(=O)C1)N1CC(=O)NC(=O)C1 (centres undefined),.,-3.7,2%,-3.8,.,.,.,.,i
O=C(Nc1cccc(-c2cn3c(n2)SCC3)c1)c1ccc2ccccc2n1,0.74,-0.3,-61%,-1.0,-1,-16,-13,0.5,i
Nc1nnc(SCc2ccccc2F)n1-c1ccccc1,0.72,1.0,-8%,.,-3,.,.,.,.
COc1ccc(Nc2nc(N)c([N+](=O)[O-])c(NCCO)n2)cc1,.,5.7,-2%,2.5,-4,-1,-14,-3.5,i
CNC(=O)NNC(=O)c1csc(-c2ccc(C(F)(F)F)cc2Cl)n1,0.64,2.5,.,-1.8,13,1,1,0.2,i
CCOC(=O)C1CCCN(C(=O)c2cccc(S(=O)(=O)N3CCCC3)c2)C1 (centres undefined),0.68,-0.1,-7%,2.9,-8,-3,-2,0.3,i
OCCCNc1ncnc2oc(-c3ccccc3)c(-c3ccccc3)c12,0.64,5.3,-4%,-3.4,-5,-55,-78,-27,i
COC(=O)c1ccc2nc(-c3ccco3)c(Cc3ccc(C)cc3)n2c1,.,6.7,.,0.7,.,-29*,1.1*,-3.9*,i
CC(C)N1CCN(CC#Cc2ccccc2)CC1CCO (centres undefined),0.72,-3.2,9%,-13,-9,-6,-12,1.0,i
CC(C)NC(=O)Nc1cccc2c1O[C@H](CN(C)C(=O)NC1CCCCC1)[C@@H](C)CN([C@H](C)CO)C2=O,0.73,-2.1,.,0.9,0,-1,15,13,i
COc1cc(C(=O)OCC(=O)NC2CCCCC2)cc(OC)c1OC,0.68,3.3,3%,-5.3,2,.,.,.,i
Cn1nnnc1SCCNCc1cc(Cl)ccc1OCc1ccccc1,0.65,-1.0,-6%,.,-1,.,.,.,.
COc1cccc(-c2cc(=O)c3cc(NC(C)=O)ccc3[nH]2)c1,0.75,-6.0,1%,-1.5,-21,-11,-13,-6.8,i
O=C(Nc1ccc(F)cc1F)c1ccco1,0.61,-2.9,5%,.,-29,.,.,.,.
O=S(=O)(Nc1ccc(Cc2ccncc2)cc1)c1cccs1,0.66,-2.9,6%,0.5,-3,-22,-22,2.6,i
CN(c1ccccc1C(=O)Nc1ccc(S(=O)(=O)N2CCCC2)cc1)S(C)(=O)=O,0.66,-2.0,-8%,.,-2,.,.,.,.
O=C(Cn1cnc2c(NCc3ccccc3)ncnc21)NCC1CCCO1 (centres undefined),0.68,-1.2,-2%,-3.6,.,7,8,-2.1,i
Cc1cc(Cl)ccc1NNC(=O)c1cccs1,0.64,-2.9,.,9.0,12,-39,-18,-8.5,i
Cc1ccccc1S(=O)(=O)NCC[C@@H]1CC[C@H](NC(=O)C2CCCC2)[C@H](CO)O1,.,.,.,0.5,.,0,5,-3.1,i
Cc1ccc(-c2nnc(-c3ccc4c(c3)OCO4)o2)cc1,0.68,-2.2,-3%,-0.7,-1,16,16,2.8,i
COc1ccc(-n2nnc3c(=O)n(Cc4cc(C)ccc4C)cnc32)cc1,0.67,3.2,-1%,.,-7,.,.,.,.
CC12COC3(C(=O)Nc4ccccc4)CC1CCC32C (centres undefined),0.63,5.8,.,-0.3,.,11,11,-1.4,i
CCOc1cc(-c2cc(-c3ccc(NC(C)=O)cc3)nc(N)c2C#N)ccc1O,0.74,2.6,.,-0.6,.,-12,-8,7.4,i
CC(C)NC(=O)Nc1ccc2c(c1)C(=O)N([C@@H](C)CO)C[C@@H](C)[C@@H](CN(C)C(=O)Nc1ccc(F)cc1)OCCCC[C@@H](C)O2,.,.,.,-1.1,.,-3,-4,-1.1,i
N/C(COc1ccccc1)=N\NS(=O)(=O)c1ccccc1,0.7,0.7,8%,.,16,.,.,.,.
C/C(=N\NC(=O)c1ccncc1)c1cccnc1,.,1.6,.,-1.3,29,20,14,-0.7,i
CC(C)(C)c1ccc(O)c(N=Cc2cc3c(cc2[N+](=O)[O-])OCO3)c1,.,-3.4,.,0.8,-11,3,7,-2.9,i
COC(=O)c1c(NC(=O)COC(=O)CNC(=O)C2CCCCC2)sc(C)c1C,0.74,-2.2,-5%,0.6,.,.,.,.,i
Cc1noc(C)c1NC(=O)Nc1ccc2c(c1)CC(=O)N([C@@H](C)CO)C[C@@H](C)[C@H](CN(C)S(=O)(=O)c1c(C)noc1C)O2,.,.,.,1.0,.,7,9,0.3,i

Some of the entries above, set out differently.
mol: CCOc1cc(-c2cc(-c3ccc(NC(C)=O)cc3)nc(N)c2C#N)ccc1O
  E coli growth = 0.74 | HNF4A DNA FP = 2.6 | Vif TR-FRET = . | AF4-AF9 inh = -0.6 | ALR inh = . | rRNA inh HTS = -12 | rRNA inh HTS OD600 = -8 | rRNA inh HTS RFP = 7.4 | FGF22 binding = i

mol: CC(C)NC(=O)Nc1ccc2c(c1)C(=O)N([C@@H](C)CO)C[C@@H](C)[C@@H](CN(C)C(=O)Nc1ccc(F)cc1)OCCCC[C@@H](C)O2
  E coli growth = . | HNF4A DNA FP = . | Vif TR-FRET = . | AF4-AF9 inh = -1.1 | ALR inh = . | rRNA inh HTS = -3 | rRNA inh HTS OD600 = -4 | rRNA inh HTS RFP = -1.1 | FGF22 binding = i

mol: N/C(COc1ccccc1)=N\NS(=O)(=O)c1ccccc1
  E coli growth = 0.7 | HNF4A DNA FP = 0.7 | Vif TR-FRET = 8% | AF4-AF9 inh = . | ALR inh = 16 | rRNA inh HTS = . | rRNA inh HTS OD600 = . | rRNA inh HTS RFP = . | FGF22 binding = .
